# miR-21 FLuc: raises the signal of a miR-21 reporter | AID 2288 | Potency, µM (titrated, usually from 38.3 µM), inactives show at the highest dose reporter change, positive = more light | 340,000 tested, under 10 active | HeLa miR-21 FLuc reporter, luciferase, 48 h; active = well fitted rising curve with a large enough effect; inconclusive = small, poorly fitted or top-dose-only effect; inactive = no such curve, though single readings can be large or run the other way;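 also: % of control where 0% means no effect; miR-21 action dims this reporter so a rising signal means less miR-21 action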
#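 Using DMEM plus 10% FBS, HeLa miR-21-FLuc cells are incubated with test compounds (final up to about 40uM) for 48 hours; firefly luciferase signal is then imaged following reagent-mediated lysis.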
# GLA inh pH 4.5: inhibitors of human alpha-galactosidase A at pH 4.5 | 230,000 tested, under 10 active | activity change, negative = inhibition, % at 105 µM | AID 1467 | P06280 | purified enzyme, 4-MU-alpha-Gal fluorescence, pH 4.5; inconclusive = small, poorly fitted or top-dose-only inhibition, or a rising curve; inactive = flat fitted curve, though single readings scatter; no compound was filed as active;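 also: 0% = full activity with enzyme and -100% = basal without enzyme; dose as in the result columns while the protocol names 77 µM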
# Target sequence (P06280 whole entry, looked up): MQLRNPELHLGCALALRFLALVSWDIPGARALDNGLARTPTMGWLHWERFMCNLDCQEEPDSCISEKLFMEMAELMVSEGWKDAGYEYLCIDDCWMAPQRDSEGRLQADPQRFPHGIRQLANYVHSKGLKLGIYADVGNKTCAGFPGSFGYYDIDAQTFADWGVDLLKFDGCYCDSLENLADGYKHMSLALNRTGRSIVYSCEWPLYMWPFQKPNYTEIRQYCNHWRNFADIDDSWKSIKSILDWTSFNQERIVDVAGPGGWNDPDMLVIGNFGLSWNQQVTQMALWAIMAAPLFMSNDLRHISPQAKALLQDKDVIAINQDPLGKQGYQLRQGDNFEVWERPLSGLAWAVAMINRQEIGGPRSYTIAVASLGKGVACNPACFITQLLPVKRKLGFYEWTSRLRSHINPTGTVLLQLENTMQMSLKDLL
# Rango-impB inh: Rango-importin beta binding inhibition. Q14974. Rango CFP/YFP FRET sensor + importin beta, 45 min. Potency, µM (highest dose often 92.2 µM), for the others: at the top dose inhibition of complex formation. actives 0.031% (n = 340,000). AID 540263; active = rising FRET ratio curve, often small or poorly fitted; inconclusive = mostly compound fluorescence or quenching in the first reads; inactive = flat curves in all reads;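 also: potency is read from the fitted curve at half-maximal effect; 0% = DMSO wells and 100% = buffer wells lacking importin beta; nearly all actives have a fitted effect of over 15% in size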
#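 FRET biosensor (snurportin 1 IBB flanked by EYFP and cerulean), 50 nM, with compound 5 min, then 0.125 microM importin beta in PBS, 1 mM DTT, 0.02% Tween-20, 0.1% BSA. CFP/YFP ratio read after 45 min at room temperature; pre-read flags interference.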
# Rango release inh: inhibitors of RanGTP-induced Rango-importin beta complex dissociation; O95149+P62826; Potency, µM (top dose mostly 46.1 µM), without a hit: at the top dose activity change, negative = inhibition; actives 0.071% (n = 340,000); Biochemical FRET Rango-importin beta, RanGTP-induced dissociation; active means falling FRET ratio curve, often poorly fitted, with flat reads before Ran was added; inconclusive means other falling curves, or compound fluorescence or quenching; inactive means flat or rising ratio curve;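 also: potency is read from the fitted curve at half-maximal effect; % of control where 0% means no effect; nearly all actives have a fitted effect of over 45% in size; -100% = wells without RanGTP and RCC1; the record marks most hits as doubtful in a second field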
#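 Compounds preincubate 5 min with complex of recombinant Rango and importin beta in PBS with 1 mM DTT. Ran (0.6 uM) loaded with 2 mM GTP plus 0.2 uM RCC1 starts dissociation; FRET is recorded 45 min later.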
# * hit, by the source's call; ? = inconclusive; · = not tested or not shown.
miR-21 FLuc,GLA inh pH 4.5,Rango-impB inh,Rango release inh,mol
·,·,-2.6%,7.7%,CCN(C(=O)COC(=O)c1cc(Cl)ccc1OC)c1c(N)n(Cc2ccccc2)c(=O)[nH]c1=O
13.3%,-3.1,-1.1%,5.7%,Cc1ccccc1Oc1nc(-c2ccccn2)nc2ccccc12
·,·,?,-11.3%,COc1ccc(CCNC(=O)COC(=O)/C=C/c2cc(OC)ccc2OC)cc1
0.6%,-1.7,-0.4%,?,CC(C)Cc1nnc(NC(=O)CCC(=O)N2CCN(S(=O)(=O)c3ccccc3)CC2)s1
-4.9%,-7.3,7.9%,-9.7%,CCc1ccc(N(C(=O)c2ccoc2C)C(C(=O)NC2CCCC2)c2ccc(OC)cc2)cc1 (stereo unspecified)
-1.2%,-6.7,2.5%,-1.1%,NC(=O)c1cccn1Cc1cccc(Cl)c1
-6.9%,-8.7,3.0%,-4.6%,FC(F)(F)c1ccc(N2CCN(c3ncnc4c3nnn4Cc3ccccc3Cl)CC2)cc1
-6.9%,-2.8,2.3%,-9.2%,O=C(CCc1nnc(COc2ccccc2)o1)NCc1ccc(Cl)s1
2.3%,·,-1.6%,-1.7%,Cc1cccc(-n2ncc3c2CCCC3NC(=O)CCN2Cc3ccccc3C2=O)c1C (stereo unspecified)
·,·,-1.4%,12.0%,CCCCOc1ccc(S(=O)(=O)N2CCN(c3ccc(N4CCN(CC)CC4)nn3)CC2)cc1
-1.1%,-3.3,-0.6%,1.0%,COc1ccc(S(=O)(=O)NCC2CCCN(Cc3cccnc3)C2)cc1 (stereo unspecified)
-1.0%,1.6,0.3%,7.3%,O=C(c1nn(Cc2ccccc2)c(=O)c2ccccc12)N1CCN(c2ccccn2)CC1
·,·,0.0%,-3.4%,COc1ccc(C(=O)Nc2nc(C)c(C(C)=O)s2)cc1S(=O)(=O)N1CCOCC1
2.9%,·,0.3%,-20.3%,Cc1ccc(NC(=O)CSc2nnc(-c3ccco3)n2N)cc1F
-2.2%,5.5,-1.2%,8.3%,CC1CCCC(NC(=O)COC(=O)Cc2cn3ccsc3n2)C1C (stereo unspecified)
·,·,-0.3%,0.7%,CC1CCc2[nH]c3ccc(C(=O)NCC4CCCO4)cc3c2C1 (stereo unspecified)
-1.4%,-4.1,-3.3%,-7.0%,COc1ccc(C2(CCN=Cc3ccc(N(C)C)cc3)CCOC(C)(C)C2)cc1 (stereo unspecified)
13.2%,0.9,0.0%,4.2%,O=C(Cc1cccs1)Nc1nc(-c2ccc(F)cc2F)cs1
0.6%,7.9,3.2%,4.3%,COc1ccc(C2C(C(C)=O)=C(O)C(=O)N2CCCn2ccnc2)cc1 (stereo unspecified)
-6.7%,-0.9,-0.1%,23.7%,O=[N+]([O-])c1cccc(-n2nnnc2CNCc2ccccc2)c1
-1.1%,-4.6,·,·,Cc1cccc(N/N=C(\C=N\N)C(=O)c2ccc(Br)cc2)c1
16.1%,-7.0,-0.6%,4.2%,CCc1nnc(NC(=O)CCC(=O)N2CCN(Cc3ccc(Cl)cc3)CC2)s1
-0.4%,1.6,-0.7%,-1.3%,COC(=O)c1cccc(N(C(=O)c2cnccn2)C(C(=O)NC2CCCCC2)c2cn(C)nc2C)c1 (stereo unspecified)
-18.6%,-3.8,?,0.1%,N#C/C(=N/O)c1nc(-c2ccc(F)cc2)cs1
-42.6%,-20.3,-3.9%,?,N#Cc1nc(-c2ccccc2F)oc1NCc1ccccc1
-22.1%,-2.1,0.8%,-8.4%,CCc1ccc(NCc2nc3ccccc3c(=O)[nH]2)cc1
7.3%,-6.0,2.8%,7.5%,COc1c(C)cc(C(=O)C2CCCN(C(=O)c3cccc(F)c3)C2)cc1C (stereo unspecified)
·,·,3.2%,-5.9%,CCCN(CC(=O)Nc1ccccc1C)C(=O)C1CC(=O)N(c2ccccc2OCC)C1 (stereo unspecified)
19.1%,-25.2,-1.6%,-2.1%,CCOC(=O)c1c(NC(=O)CN(CC)CC)sc2c1CCN(C(=O)OCC)C2
·,·,-0.4%,-23.3%,CC(=O)c1c(C)[nH]c(C(=O)CSc2nnc(NC3CC3)s2)c1C
0.9%,-26.7,-2.3%,-11.9%,O=C(O)c1cn(-c2ccccc2)c(=O)c2ccccc12
-1.4%,0.7,0.5%,6.1%,NS(=O)(=O)c1cccc(NS(=O)(=O)c2ccc(/C=C/C(=O)OCC(=O)c3ccc(Br)cc3)cc2)c1
-6.0%,9.8,-1.8%,0.8%,Cc1cc(C)nc(NS(=O)(=O)c2ccc(CC(C)C)cc2)c1
-3.1%,-0.8,-0.9%,-11.8%,CNC(=O)NNC(=O)c1onc(-c2c(Cl)cccc2Cl)c1C(=O)OC
-27.9%,·,-0.3%,-3.3%,COc1cc2[nH]c(C(=O)N3CCc4ccccc43)cc2c(OC)c1OC
-1.8%,·,?,?,Cc1cccc(-c2oc3ccc(-c4ccc5c(c4)OCO5)cc3c2/C=C/c2ccc(N)cc2)c1
-1.5%,0.8,0.0%,17.2%,COc1ccc(CNC(=O)CCn2c(=O)[nH]c3ccccc3c2=O)cc1
0.8%,4.1,·,·,Cc1cc(C)nc(/N=C2\NC(=O)CC(C(=O)O)N2c2ccc(F)c(Cl)c2)n1 (stereo unspecified)
0.9%,1.7,2.1%,-12.8%,Cc1nn(CC(=O)NCC2CCCO2)c(C)c1[N+](=O)[O-] (stereo unspecified)
·,·,?,?,O=C1C=C(c2cccc(Cl)c2O)C[C@@H](c2ccc(F)cc2)C1
-50.6%,2.2,-2.5%,13.6%,O=C(NCCCN1CCOCC1)c1sc2ccccc2c1Cl
-24.0%,-9.0,-0.9%,-5.7%,CC1(C)Cc2c(sc3nc(-c4cc5ccccc5o4)n(N)c(=O)c23)CO1
-3.3%,-3.0,10.9%,-6.7%,O=C(Nc1nccs1)c1ccc(Cl)c(S(=O)(=O)N2CCOCC2)c1
-12.5%,-1.7,7.5%,13.9%,CCOC(=O)COc1ccc2c3c(c(=O)oc2c1C)CCC3
·,·,-1.3%,-0.2%,COCCn1c(SCC(=O)NCCCN2CCCC2=O)nc2sc3c(c2c1=O)CCCC3
3.3%,-2.5,0.3%,18.0%,COc1ccc(-c2nc(NC(=O)C3CCN(c4nc5ccccc5o4)CC3)sc2C)cc1
·,·,-1.2%,0.1%,CCN(C(=O)COc1ccc2ccc(=O)oc2c1)C1CCCCC1
-4.3%,·,1.2%,30.8%,CCn1c(=O)c(C(=O)NNC(=O)c2ccccc2F)c(O)c2ccccc21
-0.8%,8.1,0.5%,13.8%,Cn1c2c(c(=O)n(C)c1=O)C(c1ccc(F)cc1)C(C#N)=C(N)O2 (stereo unspecified)
5.0%,·,-3.2%,-0.2%,CCc1c(C)nc(SCC(=O)NC2CCCC2)[nH]c1=O
-3.6%,9.8,-0.6%,17.2%,CC(C)Cn1c(N)c(C=O)c(=O)n(C)c1=O
-6.3%,-0.5,-0.4%,32.0%,O=C1CN(C(=O)c2ccco2)C(c2ccccc2)c2cc(Cl)ccc2N1 (stereo unspecified)
-1.7%,-2.9,?,?,O=C1c2cccc3cc([N+](=O)[O-])cc(c23)C(=O)N1CC1CCCO1 (stereo unspecified)
-0.5%,1.3,-0.8%,5.5%,CN(C)c1ccc(NC(=O)Cn2c(=O)n(Cc3ccccc3)c(=O)c3ccccc32)cc1
0.9%,2.3,-3.5%,2.4%,Cn1c(COc2ccccc2)nnc1SCCSc1nnc(COc2ccccc2)n1C
·,·,-1.7%,-19.9%,COc1ccc(Cl)cc1C(=O)NNC(=O)CNC(=O)c1ccco1
9.4%,·,3.2%,6.3%,COc1cc(/C=N/N(c2ccccc2)c2ccccc2)ccc1O
-13.8%,·,-1.3%,5.1%,Cc1ccc(Cl)cc1NC(=O)COc1ccccc1
·,·,3.3%,7.6%,CCC1(c2ccc(F)cc2)NC(=O)N(CC(=O)N2c3ccccc3CC2C)C1=O (stereo unspecified)
-53.1%,-4.8,-2.4%,80.8%,CC(C)/C=N/NC(=O)c1cccc(N2CCCC2=O)c1

# Part of the list above, field by field:
> CN(C)c1ccc(NC(=O)Cn2c(=O)n(Cc3ccccc3)c(=O)c3ccccc32)cc1
  miR-21 FLuc: -0.5%	GLA inh pH 4.5: 1.3	Rango-impB inh: -0.8%	Rango release inh: 5.5%

> CCc1c(C)nc(SCC(=O)NC2CCCC2)[nH]c1=O
  miR-21 FLuc: 5.0%	GLA inh pH 4.5: ·	Rango-impB inh: -3.2%	Rango release inh: -0.2%

> O=C1c2cccc3cc([N+](=O)[O-])cc(c23)C(=O)N1CC1CCCO1 (stereo unspecified)
  miR-21 FLuc: -1.7%	GLA inh pH 4.5: -2.9	Rango-impB inh: ?	Rango release inh: ?

> Cn1c(COc2ccccc2)nnc1SCCSc1nnc(COc2ccccc2)n1C
  miR-21 FLuc: 0.9%	GLA inh pH 4.5: 2.3	Rango-impB inh: -3.5%	Rango release inh: 2.4%

# Other compounds:
miR-21 FLuc,GLA inh pH 4.5,Rango-impB inh,Rango release inh,mol
-17.4%,0.8,4.1%,-5.7%,CC(=O)Nc1nc(C)c(C(C)(C)C)s1
0.2%,·,0.1%,-5.2%,Cn1ncc([N+](=O)[O-])c1C(=O)Nc1ccc(Cl)cc1
·,·,-3.0%,2.0%,O=C1C=C(c2ccc3c(c2)OCO3)C[C@@H](c2ccc(F)cc2)C1
-14.1%,-7.1,1.0%,4.8%,O=C(NNC(=O)c1ccccc1O)c1ccc(Cl)cc1
-8.5%,-9.4,-4.3%,-15.9%,CCOC(=O)N1CCC(N2Cc3cccc(C(=O)NCc4ccccc4OC)c3C2=O)CC1
·,·,-1.5%,-10.4%,COc1cc2c(cc1OC)CN(CCC(C)c1ccc(Cl)cc1)CC2 (stereo unspecified)
-4.8%,·,-6.3%,4.5%,Cc1ccc(NS(=O)(=O)c2cc3c4c(c2)CC(=O)N4CCC3)cc1C
0.0%,·,0.1%,2.2%,COc1cc(C2C(C(=O)c3cccs3)=C(O)C(=O)N2CCN2CCOCC2)cc(OC)c1OC (stereo unspecified)
8.8%,-24.7,2.3%,-9.5%,CCCOc1ccc(N2C(=O)CC(N(CCc3ccc(OC)cc3)C(=O)c3cccc(F)c3)C2=O)cc1 (stereo unspecified)
-9.1%,·,3.4%,-0.4%,Cn1c(-c2ccccc2)cnc1NCc1cccc([N+](=O)[O-])c1
-34.6%,·,0.0%,-21.0%,Cc1cc(C(=O)NNC(=S)NC2CCCCC2)cs1
·,·,4.1%,-18.1%,CC(=O)Nc1ccc(S[C@@H](CCN2CC[C@H](C(C)(C)C)CCC2=O)c2ccccc2)cc1
·,·,-0.2%,0.7%,CC(C)Cc1nnc(NC(=O)C2CC(=O)N(c3ccc4c(c3)OCCO4)C2)s1 (stereo unspecified)

# Three compounds drawn at random from those above:
miR-21 FLuc,GLA inh pH 4.5,Rango-impB inh,Rango release inh,mol
·,·,4.1%,-18.1%,CC(=O)Nc1ccc(S[C@@H](CCN2CC[C@H](C(C)(C)C)CCC2=O)c2ccccc2)cc1
-4.8%,·,-6.3%,4.5%,Cc1ccc(NS(=O)(=O)c2cc3c4c(c2)CC(=O)N4CCC3)cc1C
-34.6%,·,0.0%,-21.0%,Cc1cc(C(=O)NNC(=S)NC2CCCCC2)cs1

# Screening results deposited in PubChem BioAssay by National Center for Advancing Translational Sciences (NCATS).

# An excerpt, so the mix of outcomes need not match the whole.
